Source: PubChem BioAssay
NPYLR7 ag: activates Aedes aegypti NPYLR7 receptor; HEK293T NPYLR7/Galpha15, GCaMP6s calcium fluorescence; activation, % at 10 µM; 0.15% of 270,000 active; in the data active means activation above about 40%;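 further: 0% = vehicle and 100% = reference agonist at the receptor; some compounds past the cut are filed as inactive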
NPYLR7 ag max-min: further read-out of NPYLR7 ag, marked with its call; activation, %; measured here: Max-Min RFU normalised activation; some inactives read as strong as hits;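 span of the calcium signal over five minutes; 0% = vehicle and 100% = native peptide agonist; compound fluorescence can raise it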
* hit, by the source's call; & = joins results of further samples. Only part of the results is shown; rates above refer to the full screens.

SMILES	NPYLR7 ag	NPYLR7 ag max-min
CCN1CC(CN(C)Cc2cn(Cc3ccccc3)nc2-c2cc3ccccc3o2)CC1=O (stereo not drawn)	0	0
COC(=O)N1CCC(O)(C#N)CN1C(=O)OC (stereo not drawn)	4	39
CC(=O)c1[nH]c(C)c(C(=O)NCc2cccnc2N2CCOCC2)c1C	4	1
COc1ccc(-n2nc(-c3ccccc3F)cc2C(=O)N2CCN(c3ccccc3Cl)CC2)cc1	-3	-3
Fc1ccc(Nc2nc(-c3cccs3)cs2)cc1	1	1
Cc1cc(C(=O)COc2ccc(Cl)c3c2C(=O)CC3C)c(C)n1-c1ccccn1 (stereo not drawn)	0	2
CN1C(=O)Cc2cc(S(=O)(=O)Nc3ccc(N4CCCC4=O)cc3)ccc21	6	6
COCCN(Cc1nc2sc(C(C)C)cc2c(=O)[nH]1)CC(O)c1ccccc1 (stereo not drawn)	0	4
O=C(CCCc1nc2ccccc2s1)NCCCCOc1ccccc1	6	4
Cc1ccc(C(=O)Oc2coc(CSc3ncccn3)cc2=O)cc1	-2	-4
CCOC(=O)C1(C)CCCCN1C(=O)c1ccc2ccccc2n1 (stereo not drawn)	-2	-1
O=C(N=Nc1c(O)n(Cc2ccc(Cl)cc2)c2ccccc12)C1CCCO1 (stereo not drawn)	1	0
CCOC(=O)C1CCN(CC(=O)N2N=C(c3ccc(C)c(C)c3)CC2c2ccc(OCC)cc2)CC1 (stereo not drawn)	3	6
COc1ccccc1NC(=O)Nc1ccc(Nc2ccc(-n3nc(C)c(C)c3C)nn2)cc1	-6	-12
O=C(Nc1cccnc1Cl)c1cnn2c(C(F)(F)F)cc(-c3ccc(Br)cc3)nc12	14	16
CC(=Nc1ccc(N=C(C)C2=C(O)CC(C)(C)CC2=O)cc1)C1=C(O)CC(C)(C)CC1=O	2	0
Cc1nc2ccccc2nc1N1CCN(C(=O)Cc2ccc(F)cc2)CC1	20	20
COc1ccc(C(=O)C2CCCN(C(=O)CSc3nc(C)cs3)C2)cc1F (stereo not drawn)	19	8
CS(=O)(=O)c1ccc(Nc2nc(C(=O)NCc3ccco3)cs2)cc1	11	3
O=C(NCc1cccc(C(F)(F)F)c1)c1ccc2sc([C@@H]3O[C@H](CO)[C@@H](O)[C@H]3O)nc2c1	2	1

Reprinted at random: 3 entries already listed
SMILES	NPYLR7 ag	NPYLR7 ag max-min
O=C(N=Nc1c(O)n(Cc2ccc(Cl)cc2)c2ccccc12)C1CCCO1 (stereo not drawn)	1	0
CCOC(=O)C1CCN(CC(=O)N2N=C(c3ccc(C)c(C)c3)CC2c2ccc(OCC)cc2)CC1 (stereo not drawn)	3	6
CS(=O)(=O)c1ccc(Nc2nc(C(=O)NCc3ccco3)cs2)cc1	11	3

(cont.)
SMILES	NPYLR7 ag	NPYLR7 ag max-min
C=CCSc1nnc2n1CCN2c1ccccc1	8	7
COCCN1CC(C(=O)N2CCN(c3cccc(C)n3)CC2)CC1=O (stereo not drawn)	2	1
O=C1/C(=C/c2ccc(O)cc2)NC(=S)N1c1ccccc1	27	29
Cc1csc(C2(NC(=O)Nc3cccc(C#N)c3)CCCC2)n1	4	2
CCN(CC)C(=O)Cn1cc(C(=O)N(C)Cc2cnccn2)nn1	-1	-5
O=C1CC(C2(c3ccccc3)NC(=O)N(C3CC4COC(O4)C3=O)C2=O)C2COC1O2 (stereo not drawn)	29	38
NC(=O)C1CCN(CC(=O)Nc2oc3ccc(Cl)cc3c(=O)c2-c2ccccc2)CC1	9	5
Cc1cc(C)n(-c2nc3ccccc3n3cnnc23)n1	12	2
OCCC1CN(CC2CCCCC2)CCN1CC1CCCCC1 (stereo not drawn)	2	2
Cc1ccc(Nc2nc3c(C)cccn3c(=O)c2/C=N\O)cc1	-1	0
Cc1nc2c(OCc3ccc4c(c3)OCO4)cccn2c1N(C)C(=O)CCC1CCCC1	9	-8
CC(=O)N(Cc1cc(N)ccc1N(C)C)C(C)C(C)C (stereo not drawn)	3	-3
Cc1cccc(NC(=O)Nc2c[nH]c3ccccc23)n1	3	-3
Cc1cc(C)c(C)c(-c2nnc(NC(=O)CSc3nnc(N)s3)s2)c1C	-7	-15
COc1ccccc1-n1c(SCc2nc(C(=O)NCc3ccc(F)cc3)cs2)nnc1-c1ccncc1	-4	1
O=C(N=C1N=C2C=CC(I)=CN2Cc2ccccc21)c1c(F)cccc1F	3	16
CCn1c(C2CCN(C(=O)C3(Cn4cccn4)CC3)CC2)nn(C)c1=O	-6	-9
COC(=O)c1cc(-c2ccco2)nc2c1c(-c1ccco1)nn2C1CCS(=O)(=O)C1 (stereo not drawn)	7	2
Nc1nc(C2CC2)c(Sc2sc(N)nc2C2CC2)s1	-3	-3
Cc1cc(C(=O)NCc2ccco2)cc(S(=O)(=O)N(C)C)c1C	-3&3	-3&2

Compounds above that have a thiophene ring, fused or not, in the order listed:
SMILES	NPYLR7 ag	NPYLR7 ag max-min
Fc1ccc(Nc2nc(-c3cccs3)cs2)cc1	1	1
COCCN(Cc1nc2sc(C(C)C)cc2c(=O)[nH]1)CC(O)c1ccccc1 (stereo not drawn)	0	4

Further entries:
SMILES	NPYLR7 ag	NPYLR7 ag max-min
COCc1cc(C)nc(N/N=C\c2ccc(-c3ccc(C)c([N+](=O)[O-])c3)o2)c1C#N	-3	-3
Cc1ccsc1CNC(=O)N1CCN(c2ccccc2)CC1	-1	-2
O=C(CCc1cccnc1)N1C[C@H]2OC(=O)N(CCN3CCCCC3)[C@H]2C1	1	-7
N#CCCN(Cc1cccnc1)Cn1nc(-c2cc(-c3ccccn3)nc3ccccc23)oc1=S	6	2
CNC(=O)c1cnc(/C=C/C2=Cc3cc(Cl)ccc3OC2)s1	9	9
COc1ccc(-c2nc(CSc3nccc(C(F)(F)F)n3)cs2)cc1OC	2	10
CC(CCCC(C)(C)O)CC1OCC(C)O1 (stereo not drawn)	-2	0
Cn1c(=O)[nH]c(=O)c2c1nc(CN1CCOCC1)n2CCCc1ccccc1	14	5
CN1CCN(C(=O)c2cc3n(n2)CCN(Cc2c[nH]c4ccc(F)cc24)C3)CC1	1	-1
CCC(=O)NCc1cccc(-c2ccc(OC)cc2OC)c1	20	8
Cc1cccc(-c2nc(C)c(C)c(N3CCN(C(=O)Nc4ccc(F)c(Cl)c4)CC3)n2)c1	0	12
Cc1cccn2c(CNC(=O)CSc3ncccn3)cnc12	-3	-3
CN(Cc1ccc2ccccc2n1)C(=O)c1cn(Cc2ccc(F)cc2Cl)nn1	3	0
Cc1cccc(NC(=O)Nc2ccccc2CS(C)(=O)=O)c1C	-1	0
Cc1ccc(-c2cccc(CN3CCCC(O)(CO)CC3)c2)o1 (stereo not drawn)	3	17
CCN(CC)C(=O)Oc1ccc2c(ccn2Cc2ccc(Br)cc2)c1-c1cc(Cl)cc(Cl)c1	15	8
C=Cc1ccc(C(=O)N2CCCC(Nc3ccc(F)cc3)C2)cc1 (stereo not drawn)	-1	-2
CC(=O)Nc1nc(=O)c2ccccc2s1	5	3
NC(=O)CSc1ccccc1C(=O)Nc1ccc2c(c1)CCC2	0	10
CC(C)COc1ccc(C(C)(C)C(=O)OC2CCOC2)cc1 (stereo not drawn)	-1	-2

Structures from the list above that contain a cyano group, in the order listed:
SMILES	NPYLR7 ag	NPYLR7 ag max-min
COC(=O)N1CCC(O)(C#N)CN1C(=O)OC (stereo not drawn)	4	39
Cc1csc(C2(NC(=O)Nc3cccc(C#N)c3)CCCC2)n1	4	2
COCc1cc(C)nc(N/N=C\c2ccc(-c3ccc(C)c([N+](=O)[O-])c3)o2)c1C#N	-3	-3
N#CCCN(Cc1cccnc1)Cn1nc(-c2cc(-c3ccccn3)nc3ccccc23)oc1=S	6	2

(cont.)
SMILES	NPYLR7 ag	NPYLR7 ag max-min
O=C(NC1CCN(c2ccccc2C(=O)NC2CCCc3ccccc32)CC1)c1cccc(Cl)c1 (stereo not drawn)	0	6
Cc1ccsc1CN(Cc1ccc(C#CCO)s1)C1CCCC1	-3	-8
O=C(c1coc(CN(CCc2c[nH]c3ccccc23)Cc2cccc(F)c2)n1)N1CCOCC1	2	14
CN(CC(=O)c1ccc(O)cc1)C(=O)c1cc2ccccc2n1C	-5	-5
C=CCCC(O)(CCC=C)c1ccc(CN(CCOC)Cc2cccs2)o1	8	8
O=C(c1cnnn1-c1ccccc1)N(Cc1ccccn1)CC1CCCO1 (stereo not drawn)	-9	-13
CN(C)CC1(O)CCCN(CCS(=O)(=O)c2ccccc2)CC1 (stereo not drawn)	7	8
CCCCN(Cc1ccco1)C(=O)c1cc2n(n1)CCN(C(C)=O)C2	7	6
O=C(CCC1CCCN(C(=O)c2noc3c2CCCC3)C1)N1CCN(c2ccccn2)CC1 (stereo not drawn)	-2	-14
O=C(Cn1c(=O)n(Cc2ccc(F)cc2)c(=O)c2nccnc21)N1CCN(c2ccc(F)cc2)CC1	-5	-7
COc1ccc2c(c1)C(C(=O)O)=CC(C)(C)CO2	2	13
OC(Cn1cnnc1)c1ccccc1 (stereo not drawn)	9	4
CN(CC1CCN(CCc2cccc(C(F)(F)F)c2)CC1)C(=O)/C=C/c1cccnc1	16	6
Cc1ccc(C2(O)CCN(C(=O)c3ccc(-c4ncn[nH]4)cc3)CC2)nc1	2	-1
O=C(CSc1nnc(-c2cccc(Cl)c2)o1)NCC1CCCCC1	15	8
CCN1CCCC(NS(=O)(=O)c2cc(Br)ccc2OC)C1 (stereo not drawn)	4	1
c1ccc(-n2ncc(CN3CCOc4ccccc43)n2)cc1	11	7
O=[N+]([O-])c1ccc(NC(=S)N2CCn3cccc3C2c2ccncc2)cc1 (stereo not drawn)	-5	-6
O=C1NCCN1CCNCc1nc(-c2ccco2)no1	5	2
O=c1c2cnc3nc(-c4ccccc4)nn3c2ccn1CCCN1CCOCC1	2	4
COc1ccc2c(c1)CCc1cc(CCC(=O)NCCC#N)n(-c3ccc4ncsc4c3)c1-2	25	10
COc1cccc(C(=O)N2CCCC(C(=O)NC3CCCC[C@H]3NC(=O)c3ccccc3)C2)c1 (stereo partly drawn)	13	19
Cc1cc(C(=O)N2CC(c3ccncc3)C2)n[nH]1	-1	0
C/C=C(\C)C(=O)N1CCN(c2cc(S(=O)(=O)N3CCCC(C)C3)ccc2OC)CC1 (stereo not drawn)	27	15
O=C(N/N=C/c1cccnc1)C1=NNC(c2ccccc2)(c2ccccc2)C1	-9	-12
COc1cc(C)ccc1S(=O)(=O)Nc1cc(Cl)ccc1C(=O)NCc1ccccc1	5	7
CCOC(=O)N1CCN(c2nc(Nc3ccccc3)c3nccnc3n2)CC1	5	6
COc1ccccc1NC(=O)Cn1cc(OC)c(=O)cc1CSc1ncccn1	-7	-9
Cc1nc(Nc2ccc(NC(=O)Nc3ccccc3C(F)(F)F)cc2)cc(OC(C)C)n1	-5	-4
CC(C)=CCC/C(C)=C/COc1ccc2ccc(=O)oc2c1	3	-4
CCOC(=O)c1c(NC(=O)c2c(-c3ccccc3)noc2C)sc2c1CCC2	14	6
Cc1nc(C)c(C(=O)Nc2c(C)nc3scc(C)n3c2=O)s1	4	-2
CC(C)(C)c1cc(C(=O)NCC(C)(C)C2CCCCO2)no1 (stereo not drawn)	2&-14	0&-15
COCCN(CC(=O)N1CCc2sccc2C1COc1cccc(OC)c1)C(=O)c1ccc(OC)cc1 (stereo not drawn)	-1	0
COc1ccc(N2CC(O)(c3ccc([N+](=O)[O-])cc3)[N+]3=C2SCCC3)cc1 (stereo not drawn)	1	1
O=C(c1ccc(CN2CCS(=O)(=O)CC2)cc1)N1C[C@H]2CC=CC[C@H]2C1	18	5
Cc1ccc(C)c(CSc2nncn3c2cc2occc23)c1	4	2
FC(F)(F)c1ccc2c(c1)nc(-c1ccc(Cl)cc1)c1nccn12	-13	-16
O=C(Nc1nn2cnnc2s1)C1CC=CCC1 (stereo not drawn)	6	5
CCOC(=O)c1nc(S(C)(=O)=O)ncc1Cl	9	-1

Gathered by group: the entries above with a nitro group on carbon
SMILES	NPYLR7 ag	NPYLR7 ag max-min
COCc1cc(C)nc(N/N=C\c2ccc(-c3ccc(C)c([N+](=O)[O-])c3)o2)c1C#N	-3	-3
O=[N+]([O-])c1ccc(NC(=S)N2CCn3cccc3C2c2ccncc2)cc1 (stereo not drawn)	-5	-6
COc1ccc(N2CC(O)(c3ccc([N+](=O)[O-])cc3)[N+]3=C2SCCC3)cc1 (stereo not drawn)	1	1

Remaining list, next part.
SMILES	NPYLR7 ag	NPYLR7 ag max-min
Nc1ncc(Br)nc1Br	5	5
O=C(CCC1CCN(C(=O)c2cn3ccsc3n2)CC1)NCc1cccnc1	6	2
Cc1nc(CCN)cc(N2CCC(N3CCCC3)CC2)n1	7	3
OCCCn1cnc(-c2ccccc2)c1-c1ccc(Cl)s1	18	6
CC(C)S(=O)(=O)c1cccc(C(=O)N(Cc2ccncc2)c2nc3c(F)cccc3s2)c1	-5	-10
CCOc1ccc(C(=O)Nc2cccc(-c3nc4ccccc4o3)c2)cc1[N+](=O)[O-]	10	7
CCCCCCCC(=O)NN=Cc1ccc([N+](=O)[O-])cc1	4	3
COC(=O)Cn1c(=NC(=O)c2ccc3ncsc3c2)sc2cc(OC)ccc21	1	-1
O=C(CN(c1cccc([N+](=O)[O-])c1)S(=O)(=O)c1ccccc1)NC1CCCC1	-5	-10
Cc1ccc(S(=O)(=O)Oc2ccc(/C=C3\C(=N)N4N=CSC4=NC3=O)cc2Cl)cc1	-1	-1
CCn1c(C)c(C(=O)CN(C(=O)c2cccc([N+](=O)[O-])c2)C2CCCCC2)c(C)c1C(=O)OC	-11	-5
CC(C)N(CC(N)=O)CC(=O)N(Cc1ccccc1)C(C)C1CC1 (stereo not drawn)	8	1
Cc1ccc(S(=O)(=O)N2CCN(CC(=O)NC3CCCCC3)CC2)c(C)c1	1	-2
O=C(C1CCOCC1)N1CCCCCC1C1CCN(c2nc3ccccc3s2)CC1 (stereo not drawn)	-3	-4
COc1ccc(OC)c2c1CN(c1snc(Cl)c1C#N)CC2O (stereo not drawn)	-1	-4
O=C(NNC(=O)C1c2ccccc2Oc2ccccc21)c1ccccc1F	16	9
COc1ccc(-n2c(SCCCCC(=O)N(C)CCc3ccc(OC)c(OC)c3)nnc2-c2ccccc2)cc1	12	17
COc1ccc(OCC(=O)N2CCN(c3ccc(F)cc3)CC2)cc1	10	4
CC1CC(=O)Nc2c1c(NC(=O)c1ccc(F)cc1F)nn2C (stereo not drawn)	-18	-24
